Screening results: PubChem BioAssay, National Center for Advancing Translational Sciences (NCATS)
Sfp inh: inhibitors of Bacillus subtilis Sfp phosphopantetheinyl transferase | Q9F4F7 | hit rate 3.5% among 310,000 | Biochemical Sfp PPTase activity, qHTS | AID 1490 | Potency, µM, inactives show max response, negative = inhibition, usual class: inhibitors; active = well fitted inhibition curve with a large enough effect; inconclusive = small, poorly fitted or top-dose-only effect, or another doubt; inactive = no such curve, though single readings can be large or run the other way;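 note: the enzyme is Sfp with the accession as filed and its product quenches rhodamine fluorescence; potency is the fitted concentration of half-maximal effect; 0% = enzyme reaction without inhibitor and -100% = no enzyme wells; top concentration of the series not given in the record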
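Fluorescence-quenching assay with 15 nM Sfp, 5 uM rhodamine-CoA and 12.5 uM BHQ-2-labelled ybbR peptide in pH 7.6 Hepes/MgCl2 buffer. Enzyme was pre-incubated with compound for 15 min at room temperature. Rate was taken from the 30-min fluorescence change (525/598 nm).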
CtBP-E1A blk: blocks the CtBP interaction with E1A. activity change, % (no concentration beside the values). AID 651724. hit rate 0.49% among 340,000. AlphaScreen GST-E1A/His-CtBP binding, 1536-well; hits give low values; control for the full effect not named in the record; in the data active means activity change below about -65%; inconclusive means about -30% to -65%; inactive means above about -30%; note: % is set by controls: 0 for no effect and ±100 for the full control effect; compound concentration not given in the record
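Homogeneous bead-based format: GST-tagged E1A captured on glutathione donor beads, His-tagged CtBP on nickel acceptor beads; compounds precede bead addition by 2 h at 37 °C.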
ClpP mod: qHTS Assay for Activators of ClpP; Potency, µM (series often up to 57.5 µM), without a hit: top-dose activity change, negative = active; purified B. subtilis ClpP, FRET peptide cleavage, 20 min; hit rate 1.9% among 340,000; active = well fitted falling curve with a large enough effect; inconclusive = small, poorly fitted or top-dose-only effect; inactive = no such curve, though single readings can be large or run the other way; note: potency is the fitted concentration of half-maximal effect; the source files actives as falling curves though it sought activators and does not explain the sign; nearly all actives have a fitted effect of over 65% in size; many hits overshoot -100%
Target sequence (P80244 whole entry, looked up): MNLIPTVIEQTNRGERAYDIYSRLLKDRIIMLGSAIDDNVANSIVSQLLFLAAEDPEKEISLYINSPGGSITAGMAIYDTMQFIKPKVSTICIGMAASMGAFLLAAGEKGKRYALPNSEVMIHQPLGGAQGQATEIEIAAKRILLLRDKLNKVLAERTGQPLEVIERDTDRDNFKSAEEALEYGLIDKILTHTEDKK
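FRET quenching reversal measured ClpP activation: 10 microg/mL B. subtilis ClpP at pH 8 with the FRET-FV decapeptide, read at 430 nm after 320 nm excitation. The 20-min minus 0-min signal was scaled between DMSO/no-enzyme wells and ADEP (5.8 microM final).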
Menin MLL FP FL: menin-MLL binding inhibition, fluorescein peptide | AID 1766 | FP activity change, % at 61.4 µM | 290,000 tested, under 10 active | Fluorescence polarization, fluorescein-MLL peptide displacement from menin; inconclusive = falling polarisation curve, or a change in total fluorescence; inactive = total fluorescence flat and polarisation flat or rising; no compound was filed as active; the % refers to the polarisation; negative = inhibition;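 note: % of control where 0% means no effect; inhibitors lower the polarisation; unlabelled MLL peptide was the positive control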
gsp antag: gsp mutant antagonism | Potency, µM (doses to about 76.9 µM), for inactives: at the highest dose activity change, negative = inhibition, usual class: inhibitors | gsp-mutant cells, cAMP HTRF, 30 min; control for the full effect not named in the record | hit rate 0.4% among 340,000; active = falling curve of any shape with a large fitted effect; inconclusive = falling curve, mostly with a smaller effect; inactive = flat or rising curve; cell line not stated here;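 note: intracellular cAMP measured with PDE inhibitor Ro 20-1724 present during compound exposure; potency is the fitted concentration of half-maximal effect; % is set by controls: 0 for no effect and ±100 for the full control effect; nearly all actives have a fitted effect of over 65% in size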
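HTRF cAMP read-out (cAMP-d2 plus anti-cAMP antibody-K in lysis buffer, 30 min RT). Before lysis, cells are exposed to compounds with […] for 30 min at 37C in DPBS containing Ca/Mg, BSA and Tween 20.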
gsp ag: activates gsp, the McCune-Albright syndrome mutation; Potency, µM (titrated, usually from 76.9 µM), for the others: at the top dose activation (cAMP increase), usual class: activators; AID 624287; gsp mutant cells, cAMP HTRF, 30 min; control for the full effect not named in the record; hit rate 0.13% among 340,000; active = well fitted activation curve with a large enough effect; inconclusive = small, poorly fitted or top-dose-only effect, or another doubt; inactive = no such curve, though single readings can be large or run the other way; cell line not stated here;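 note: phosphodiesterase inhibitor Ro 20-1724 added with compounds to block cAMP breakdown; potency is the fitted concentration of half-maximal effect; nearly all actives have a fitted effect of over 60% in size; about a fifth of the inactives were tested at one dose only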
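Cells stably selected in G418 were plated at 2000/well, grown 16-24 hr, then given compounds in DMSO with the PDE inhibitor […] (300 uM solution added) for 30 min at 37C; cAMP was read by HTRF.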
TRPV1 potentiator: enhances activation of the human vanilloid receptor TRPV1. hit rate 0.02% among 320,000. TRPV1-expressing cells, Fluo-8 calcium influx, capsaicin EC20 potentiation; host cell line not named in the record; control for the full effect not named in the record. Q8NER1. potentiation, % at 8.33 µM; active means potentiation above 80%; inconclusive means 30% to 80%; inactive means below 30%; note: 0% is about no effect
Target sequence (Q8NER1 whole entry, looked up): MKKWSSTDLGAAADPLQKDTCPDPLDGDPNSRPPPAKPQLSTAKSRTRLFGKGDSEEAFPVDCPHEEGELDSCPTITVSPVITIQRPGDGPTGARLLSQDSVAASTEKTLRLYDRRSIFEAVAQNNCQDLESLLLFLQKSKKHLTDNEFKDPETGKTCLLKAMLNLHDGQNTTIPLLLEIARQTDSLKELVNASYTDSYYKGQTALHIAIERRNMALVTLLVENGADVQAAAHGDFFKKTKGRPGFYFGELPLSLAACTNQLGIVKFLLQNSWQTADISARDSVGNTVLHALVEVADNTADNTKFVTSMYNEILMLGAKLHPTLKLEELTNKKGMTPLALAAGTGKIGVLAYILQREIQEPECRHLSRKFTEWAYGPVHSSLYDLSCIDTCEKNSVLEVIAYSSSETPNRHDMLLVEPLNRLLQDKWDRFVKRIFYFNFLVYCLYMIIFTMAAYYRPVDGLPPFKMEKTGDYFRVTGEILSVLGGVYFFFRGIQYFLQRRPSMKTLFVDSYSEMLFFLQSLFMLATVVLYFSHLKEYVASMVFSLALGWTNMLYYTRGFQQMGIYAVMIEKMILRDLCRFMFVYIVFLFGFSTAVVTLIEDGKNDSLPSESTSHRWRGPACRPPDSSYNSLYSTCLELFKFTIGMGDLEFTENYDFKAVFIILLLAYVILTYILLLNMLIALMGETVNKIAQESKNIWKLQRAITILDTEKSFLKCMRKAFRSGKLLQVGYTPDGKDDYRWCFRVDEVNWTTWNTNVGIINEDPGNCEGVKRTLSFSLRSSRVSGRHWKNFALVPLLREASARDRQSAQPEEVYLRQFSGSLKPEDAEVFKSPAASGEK
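Cells expressing TRPV1 were dye-loaded with Fluo-8 and read kinetically: 10 s baseline, 3 min after compound (agonist portion), then 2 min after EC20 capsaicin (allosteric enhancer portion). Calcium-bound dye fluorescence at 480/520 nm.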
The depositor's hits bear a star; ? = inconclusive; / = no result given; [ ] = dose if it differs, or a comment.

SMILES | Sfp inh | CtBP-E1A blk | ClpP mod | Menin MLL FP FL | gsp antag | gsp ag | TRPV1 potentiator
CCn1c(-c2cc(-c3cccc(OC)c3)nc3ccccc23)n[nH]c1=S | ? | -9.0 | 6.3% | -0.7 | -14.5% | 23.0% | -28.3
O=C(COc1ccc([N+](=O)[O-])cc1)Nc1ccc(N2CCN(C(=O)c3ccco3)CC2)cc1 | -6.5% | 0.0 | -0.4% | / | -34.5% | -9.3% | 12.0
C=CCOc1cccc(C2/C(=C(/O)c3ccccc3)C(=O)C(=O)N2CCN2CCOCC2)c1 (centres undefined) | 13.2% | 5.5 | -1.3% | -0.8 | -3.0% | 6.7% | 7.1
Cc1ccccc1-c1nc2sc3c(c2c(=O)n1N)CCCC3 | 2.9% | -28.5 | -4.9% | -2.9 | -5.8% | 28.5% | 6.5
Cc1cc(N/N=C/c2c(O)ccc3ccccc23)nc(-c2ccccc2O)n1 | 4.4% | -5.3 | -5.0% | 4.6 | 1.1% | 8.7% | -2.7
Cc1ccc(C=NNc2nc3c([nH]2)c(=O)n(C)c(=O)n3C)cc1 | / | -17.9 | / | / | -23.0% | -22.5% | /
O=c1cc(CO)[nH]nc1CO | / | -1.9 | 0.1% | / | / | ? | /
Cc1n[nH]c(C)c1CCN(C)Cc1cn(C)nc1-c1ccccc1F | 12.0% | -6.8 | ? | -10.3 | 6.3% | -14.0%[15.4 µM] | -0.8
Cc1sc2nc(-c3ccccc3)oc(=O)c2c1C | 5.2% | 3.5 | / | -1.6 | -9.5% | 8.5%[15.4 µM] | -5.1
C=CCn1c(SCC(=O)c2c(N)n(C)c(=O)n(C)c2=O)nnc1-c1ccoc1C | / | -2.1 | -3.9% | / | 1.9% | 9.9%[15.4 µM] | /
CCCCc1c(O)nc(SCC(=O)N2CCOCC2)n(-c2ccccc2OC)c1=O | -2.5% | -0.3 | / | -0.8 | 7.3% | ? | 8.3
COC(=O)C1C(=O)c2c([nH]c(C(=O)OCCSC)c2C)CC1C (centres undefined) | -9.7% | -0.4 | -4.0% | -0.4 | -4.1% | 6.9% | 2.1
CSc1ccccc1NC(=O)c1ccc(CN2CCOCC2)cc1 | 14.4% | 4.3 | / | -1.0 | 0.4% | -1.1% | -0.6
CC1CCN(C2=C(NS(=O)(=O)c3ccccc3)C(=O)c3ccccc3C2=O)CC1 | -1.3% | -84.7* | / | 1.1 | -19.5% | 11.4%[15.4 µM] | -3.9
CCOC(=O)Nc1ccc(NC(=O)c2c(OC)cccc2OC)cc1 | 16.8% | 0.6 | -0.8% | 6.0 | 4.8% | -29.9% | -2.7
C[C@@H]1CCCCO[C@@H](CN(C)C(=O)c2ccncc2)[C@@H](C)CN([C@H](C)CO)C(=O)c2cc(NC(=O)Cc3ccccc3)ccc2O1 | / | 4.5 | 0.1% | / | / | -74.1% | /
CCOC(=O)Cc1c(C)nc2c(-c3ccccc3)cnn2c1C | -10.3% | 6.4 | -3.6% | 0.9 | -11.9% | 4.1% | 2.9
O=C(CSc1nnc(-c2ccncc2)n1Cc1ccccc1)NC1CCCc2ccccc21 (centres undefined) | -10.8% | ? | 4.8% | 2.6 | -4.9% | -7.4% | -2.4
CSc1ccc(CN(C)C(=O)c2cc(=O)c3ccccc3o2)cc1 | 10.5% | -12.0 | / | 3.8 | -12.8% | 19.1% | -2.1
CCSc1nnc(-c2ccc(S(=O)(=O)N3CCOCC3)cc2)n1CC1CCCO1 (centres undefined) | 19.4% | -10.0 | ? | 1.9 | -2.7% | -1.7% | 11.5
CCCN(C(=O)CSc1nc2ccccc2n1CC)C1CCS(=O)(=O)C1 (centres undefined) | 8.1% | 7.3 | -0.6% | / | 1.6% | ? | 1.4
CCOc1ccc(OCCN(C)Cc2ccccc2)cc1 | -15.5% | -0.3 | 0.9% | -1.5 | 13.4% | 23.0% | -4.1
CC(C)(C)c1ccc(C2(C)NC(=O)NC2=O)cc1 (centres undefined) | 2.6% | 4.6 | / | -0.6 | 0.5% | -10.8% | -1.1
COC(=O)[C@@]12CCCN1[C@H](c1ccc(-c3ccccc3)cc1)[C@@H]1C(=O)N(C)C(=O)[C@@H]12 | / | -3.6 | -8.1% | / | -7.5% | / | 26.8
CCCn1c(SCC(=O)N(C)CC(=O)Nc2ccc(C)cc2)n[nH]c1=O | / | 7.4 | -0.9% | / | 17.5% | 5.9% | 2.1

The last 7 compounds of the section above come first, to join the parts:
SMILES | Sfp inh | CtBP-E1A blk | ClpP mod | Menin MLL FP FL | gsp antag | gsp ag | TRPV1 potentiator
CSc1ccc(CN(C)C(=O)c2cc(=O)c3ccccc3o2)cc1 | 10.5% | -12.0 | / | 3.8 | -12.8% | 19.1% | -2.1
CCSc1nnc(-c2ccc(S(=O)(=O)N3CCOCC3)cc2)n1CC1CCCO1 (centres undefined) | 19.4% | -10.0 | ? | 1.9 | -2.7% | -1.7% | 11.5
CCCN(C(=O)CSc1nc2ccccc2n1CC)C1CCS(=O)(=O)C1 (centres undefined) | 8.1% | 7.3 | -0.6% | / | 1.6% | ? | 1.4
CCOc1ccc(OCCN(C)Cc2ccccc2)cc1 | -15.5% | -0.3 | 0.9% | -1.5 | 13.4% | 23.0% | -4.1
CC(C)(C)c1ccc(C2(C)NC(=O)NC2=O)cc1 (centres undefined) | 2.6% | 4.6 | / | -0.6 | 0.5% | -10.8% | -1.1
COC(=O)[C@@]12CCCN1[C@H](c1ccc(-c3ccccc3)cc1)[C@@H]1C(=O)N(C)C(=O)[C@@H]12 | / | -3.6 | -8.1% | / | -7.5% | / | 26.8
CCCn1c(SCC(=O)N(C)CC(=O)Nc2ccc(C)cc2)n[nH]c1=O | / | 7.4 | -0.9% | / | 17.5% | 5.9% | 2.1
COc1ccc(/C=C/c2c([N+](=O)[O-])c(=O)n(C)c(=O)n2C)cc1OC | 7.3% | 48.3 | 1.3% | 0.7 | 4.7% | -9.9% | -4.7
COc1ccc(N(C)S(=O)(=O)c2cccc(C(=O)NC3CCCC(C)C3C)c2)cc1 (centres undefined) | / | -0.7 | 0.5% | / | -36.3% | ? | 0.4
CCN(CC(=O)Nc1cccc(Br)c1)Cc1nc2ccccc2c(=O)[nH]1 | -14.9% | -4.4 | -3.4% | 0.6 | -5.6% | 7.3% | -8.3
Cc1ccc(NC(=O)C2(N3CCC3=O)CCCCC2)cc1 | 19.2% | 9.1 | / | -1.1 | 4.1% | 20.1%[15.4 µM] | 6.0
O=Cc1ccc(N2CCCC2)c(F)c1 | 3.6% | 5.6 | -1.2% | -4.0 | -2.0% | -29.2% | -1.8
CCOc1cc(CNCc2ccccn2)cc(Cl)c1OC | 5.4% | -7.6 | 0.1% | -1.8 | 9.0% | 1.8% | 3.1
COc1nc(-c2ccccc2)ccc1-c1noc(-c2ccccc2F)n1 | -2.7% | 9.5 | ? | -0.6 | 2.7% | 1.3% | 4.3
CN(C)c1ccc(/C=C(/NC(=O)c2ccccc2)C(=O)N2CCCC2)cc1 | 16.7% | -11.7 | / | 13.8 | -3.3% | -5.2%[15.4 µM] | 10.3
CC1CCN(Cc2ccc(-c3nnn(CC(=O)Nc4ccccc4Cl)n3)cc2)CC1 | 9.7% | 3.0 | / | 1.3 | / | -8.6%[15.4 µM] | -7.9
COc1ccc(OC)c(Cc2nnc(CCC(=O)N3CCCCCC3)o2)c1 | -29.9% | 13.6 | -1.8% | -0.7 | -4.2% | ? | -11.4
NC(=S)COc1ccccc1 | 21.3% | 4.2 | 0.5% | -1.0 | 12.2% | -31.5%[15.4 µM] | -3.3
S=c1[nH]nc(COc2ccc(Cl)cc2)n1C1CCCCC1 | 16.0% | 0.6 | -1.7% | 0.8 | -9.1% | -8.8% | -3.6
COc1ccc(C(=O)/C=C/Nc2cc(C)ccn2)cc1 | 6.5% | 6.8 | / | 5.2 | -5.3% | 14.9% | -14.7
CCOc1ccc(CCNC(=O)COC(=O)c2ccc(OC)c(OC)c2OC)cc1OCC | 13.0% | -6.5 | / | 1.2 | 3.1% | -0.9%[15.4 µM] | 9.2
CCOc1ccc(N2C(=O)CC(Sc3nc(CC(C)C)ccc3C#N)C2=O)cc1 (centres undefined) | -10.0% | 3.6 | / | 0.2 | -7.8% | 6.6%[15.4 µM] | 1.7
CCOC(=O)c1cc(-c2ccc(F)cc2)n(CC(=O)N2CCCC2)c1C | 5.6% | 0.7 | 0.1% | 3.0 | -9.3% | -27.0% | 5.4
c1ccc2oc(NC3=NCN(CC4CCCO4)CN3)nc2c1 (centres undefined) | 10.3% | 4.4 | -0.5% | 4.5 | 14.0% | 2.8% | 11.2
COc1cc(OC)cc(-c2c(-c3ccc(C(C)=O)cc3)c3cc(-c4cccc5[nH]ccc45)ccc3n2C)c1 | / | -1.8 | 18.9% | / | 2.9% | -31.1%[inhibitor] | /
Cc1ccc(C)c(N2CCN(C(=O)c3ccc(Cn4c(=S)[nH]c5ccc(N6CCOCC6)cc5c4=O)cc3)CC2)c1 | 3.9% | -0.5 | / | 7.8 | -22.9% | -4.0%[15.4 µM] | 2.3
Cc1ccc(C(=O)NCC(=O)N/N=C/c2sccc2C)cc1[N+](=O)[O-] | 5.7% | / | -3.9% | 3.7 | -11.0% | -52.6%[inhibitor] | -7.0
CCC(C(=O)OC)n1cnc2c(nnn2-c2ccc(OC)cc2)c1=O (centres undefined) | 7.6% | 2.1 | -3.8% | -1.7 | -10.9% | -15.2% | -9.3
COC(=O)c1ccc(Oc2coc3cc(OCc4ccc([N+](=O)[O-])cc4)ccc3c2=O)cc1 | -5.5% | 3.8 | 0.9% | 1.7 | 3.4% | -6.7% | -16.4
Cc1ccc(C(=O)NCC(C)(C)N2CCOCC2)s1 | 6.1% | 7.6 | -0.5% | 1.0 | 6.4% | 6.1% | -8.1
Cc1ccc(-n2c(C)c3c(C)nnc(C)c3c2C)cc1C | ? | -13.4 | -21.8% | 9.9 | -1.7% | 17.9% | -7.1
CC(C)c1ccc(C(C)NCCS(=O)(=O)c2ccc(Br)cc2)cc1 (centres undefined) | 10.9% | 0.0 | -0.6% | / | -6.0% | 19.4% | -7.0
